UCH37 inh = human UCH37 deubiquitinating enzyme inhibition; Q9Y5K5; purified proteasome/UCH37, Ub-AMC cleavage fluorescence; inhibition, % (concentration not given with the values); 330,000 tested, 0.33% active;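 active = mean of two replicates above 20%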;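 note: 0% = compound-free wells with enzyme and 100% = wells lacking proteasome; stock transfer was 100 nL into about 20 µL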
Target sequence (Q9Y5K5 whole entry, looked up): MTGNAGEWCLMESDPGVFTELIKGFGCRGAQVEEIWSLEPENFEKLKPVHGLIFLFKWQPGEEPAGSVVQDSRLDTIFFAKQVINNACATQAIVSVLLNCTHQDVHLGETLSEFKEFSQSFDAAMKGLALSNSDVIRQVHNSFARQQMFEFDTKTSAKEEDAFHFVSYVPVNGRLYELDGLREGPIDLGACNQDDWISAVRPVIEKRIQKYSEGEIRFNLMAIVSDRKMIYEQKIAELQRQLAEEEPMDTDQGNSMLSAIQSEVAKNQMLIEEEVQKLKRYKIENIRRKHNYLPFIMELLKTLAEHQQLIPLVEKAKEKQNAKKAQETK
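Assay system: Proteasome-bound UCH37. Buffer or medium: pH 7.4 Tris-HCl (50 mM) with ovalbumin, ATP-MgCl2, DTT. Incubation: 30 min preincubation with enzyme, 25 min cleavage at room temperature. Measured by: fluorescence, ex 355 nm, em 460 nm. Read-out basis: percent inhibition. Control set: wells without proteasome as full block, compound-free enzyme plus substrate as uninhibited.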
FGF22 binding = binders of recombinant human FGF22 by thermal shift. Q9HCT0. SYPRO orange fluorescence; percent of sucrose octasulfate shift, DMSO zero. calls only at 9.99 µM. 340,000 tested, 1.5% active. AID 651658;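 active = melting point raised past a set limit in the mean and every replicate; inconclusive = no clear call; three in four hits are not shown here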
Target sequence (Q9HCT0 whole entry, looked up): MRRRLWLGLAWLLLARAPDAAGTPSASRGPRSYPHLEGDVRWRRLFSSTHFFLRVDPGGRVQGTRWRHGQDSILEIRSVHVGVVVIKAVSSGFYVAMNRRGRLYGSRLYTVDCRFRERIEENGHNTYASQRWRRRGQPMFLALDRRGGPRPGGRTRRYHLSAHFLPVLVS
Vif A3G = HIV-1 Vif–A3G interaction blockers – biochemical, TR-FRET, GST-Vif 1-94, biotin-A3G peptide, dose response retest, primary screen (AID 1117319); TR-FRET GST-Vif / biotin-A3G peptide binding; higher % means a stronger effect; test concentration not given here; strong numbers were not always called active; inhibition, %; hits with a dose series show IC50 in µM; 260,000 tested, 0.57% active;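 active = above the screen mean plus three standard deviations and confirmed in dose response; inconclusive = results disagree or hit not tested in dose response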;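 note: Vif residues 1-94 fused to GST binding biotinylated APOBEC3G peptide 110-148; 0% = full assay without inhibitor and 100% = GST in place of GST-Vif; retest series ran down from 100 µM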
HNF4A DNA FP = change in binding of human HNF4 alpha to DNA. AID 1224865. activity change, % at 10 µM. HNF4a-FITC DNA binding, fluorescence polarization, 1 h. 360,000 tested, 0.3% active; in the data active = activity change above about 30%, passing the limit was not always enough;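 note: controls were the assay level and a saturating level of protein; the project sought stronger binding though the title names inhibitors; some compounds called inactive have numbers as strong as hits; positive values seem to mean higher polarization but the record does not say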
Target sequence (P41235 whole entry, looked up): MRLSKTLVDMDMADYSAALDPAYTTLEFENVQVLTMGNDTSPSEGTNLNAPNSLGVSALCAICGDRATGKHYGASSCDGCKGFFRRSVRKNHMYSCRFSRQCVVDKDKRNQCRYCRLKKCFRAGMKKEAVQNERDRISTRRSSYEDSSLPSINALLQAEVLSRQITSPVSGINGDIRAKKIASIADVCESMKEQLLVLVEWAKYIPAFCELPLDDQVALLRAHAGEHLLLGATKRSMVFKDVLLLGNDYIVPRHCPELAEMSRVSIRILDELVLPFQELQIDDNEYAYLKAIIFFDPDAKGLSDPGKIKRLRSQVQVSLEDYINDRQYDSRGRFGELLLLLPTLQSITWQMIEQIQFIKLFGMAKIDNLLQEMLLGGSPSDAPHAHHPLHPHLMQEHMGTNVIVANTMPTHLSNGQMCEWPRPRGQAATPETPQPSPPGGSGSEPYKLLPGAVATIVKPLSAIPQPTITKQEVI
RanGTP-Impb inh = inhibitors of RanGTP-importin-beta interaction, primary screen, biochemical, FRET, CFP-Ran, YFP-importin-beta, homogeneous. inhibition, % (test concentration not listed). 300,000 tested, 1.1% active. cell-free CFP-Ran/YFP-importin-beta FRET ratio;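 active = most replicates above 15%; inconclusive = exactly half above 15%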;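 note: 0% = DMSO wells and 100% = Ran loaded with GDP instead of GTP; wells of about 40 µL received 100 nL stock; the first replicate is given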
E coli growth = blocks Escherichia coli growth; OD600, 23 h; hits give low values; OD600 absorbance (concentration not given with the values); 330,000 tested, 0.21% active;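 active = OD600 absorbance below the run mean of sample wells minus 3.6 SD, in any replicate, cut at about 0.56 in these data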;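 note: stock transfer was 300 nL into about 60 µL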
AF4-AF9 inh = MLL-AF4/AF9 protein interaction inhibition; AlphaScreen, biotin-AF4 peptide binding to FLAG-AF9; P42568; 350,000 tested, 0.47% active; inhibition, % at 10 µM; AID 651704;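 active = every replicate reaching a set inhibition limit, whatever the replicate mean, cut at about 25% in these data; inconclusive = mean inhibition reaches that limit but some replicates miss it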;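 note: 0% = plate neutral control median and 100% = total signal loss; the record names both 10 and 1 µM as test concentration; the first replicate is given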
* marks the source's active call; other numbers are inactive results; i = inactive; u = inconclusive; x = not tested or not shown; & = joins results of further samples. Some of the compounds tested (hit frequency here may not be typical).

no.	canonical_smiles	UCH37 inh	E coli growth	Vif A3G	AF4-AF9 inh	HNF4A DNA FP	FGF22 binding	RanGTP-Impb inh
1	O=c1c2ccccc2sc2ccccc12	-34.8	0.687	-4.9%	0.7	0.0	i	x
2	Cc1ccc2nc(SCC(=O)NCc3ccc(F)cc3)nc(=O)n2c1	-21.0	0.677	-0.2%	-22.3	1.6	i	0.3
3	CC(C)Nc1nnc(SCC(=O)NCc2ccc3c(c2)OCO3)s1	-1.3	0.742	-2.4%	-1.4	4.0	i	0.8
4	Fc1ccc2[nH]c3c(NCc4ccccc4)ncnc3c2c1	-27.9	0.449*	x	0.2	-5.8	i	-2.1
5	Cc1cc(NC(=O)CN2CCCCC2)no1	0.2	0.71	31.4%	-0.3	0.4	i	6.8
6	Cc1cc(C(=O)NCc2cc(F)cc3c2OCOC3)nn1C	6.1	0.645	-2.6%	3.8	-5.1	i	3.0
7	Cc1cccn2c(=O)nc(SCC(=O)NCc3ccccc3Cl)nc12	-6.8	0.628	8.6%	-18.1	0.5	i	-2.3
8	CO/N=C(\Cn1ncc(N2CCCC2)c(Br)c1=O)c1ccc(Cl)cc1	x	x	-6.2%	x	1.5	x	2.0
9	COc1ccc(CNCCc2ccccc2)cc1OCC(N)=O	5.7	0.698	-1.3%	x	-0.5	x	-2.0
10	O=C(CCCCC(=O)Sc1ccccc1)Sc1ccccc1	2.4	0.661	-0.8%	1.9	1.8	x	x
11	COc1cc(NC(=O)CSc2cc(C)c3cc(C)cc(C)c3n2)c(C(=O)O)cc1OC	6.1	0.725	-13.6%	-0.9	3.4	i	2.2
12	CCn1c(C)nc2cc(-c3nc4n(n3)Cc3ccccc3-4)ccc21	6.2	0.662	15.2%	x	0.4	x	1.9
13	COc1ccc(OC(C)C(=O)Nc2cccc([N+](=O)[O-])c2)cc1 (stereo unspecified)	1.8	0.654	-5.1%	x	1.8	x	1.4
14	C/C(=N\OCC(=O)OC(C)C(=O)Nc1ccc(C)c(S(=O)(=O)N2CCOCC2)c1)c1ccc2c(c1)OCO2 (stereo unspecified)	x	x	x	1.6	-0.9	i	x
15	O=c1[nH]ncc(N/N=C\c2cccnc2)c1Cl	x	x	-5.1%	11.2	-1.6	i	1.7
16	CN1C(=O)CSc2ccc(NC(=O)N3CCc4ccccc43)cc21	2.9	0.671	23.4%	u	2.5	x	5.2
17	CCOC(=O)c1oc2cc(OCC(N)=O)ccc2c(=O)c1-c1ccc(OC)c(OC)c1	2.9	0.66	10.3%&-3.9%	-2.9	2.6	x	4.4
18	Cc1ccc(-n2ncc(C(=O)N3CCc4ccccc4C3)c2NC(=O)c2ccco2)cc1C	1.2	0.707	4.8%	x	0.4	x	0.4
19	CCOc1ccc(-c2cc(C(=O)NCC3CCCO3)c3ccccc3n2)cc1 (stereo unspecified)	-174.5	0.683	x	x	-3.5	x	-0.5
20	COc1ccc2nc(Nc3nc(CSc4nnnn4-c4ccccc4)cc(=O)[nH]3)nc(C)c2c1	1.4	0.748	-3.6%	x	-1.7	x	-1.8

Part of the list above, with values ahead of the structure:
| no. | UCH37 inh | E coli growth | Vif A3G | AF4-AF9 inh | HNF4A DNA FP | FGF22 binding | RanGTP-Impb inh | Compound |
| --- | --- | --- | --- | --- | --- | --- | --- | --- |
| 12 | 6.2 | 0.662 | 15.2% | x | 0.4 | x | 1.9 | CCn1c(C)nc2cc(-c3nc4n(n3)Cc3ccccc3-4)ccc21 |
| 13 | 1.8 | 0.654 | -5.1% | x | 1.8 | x | 1.4 | COc1ccc(OC(C)C(=O)Nc2cccc([N+](=O)[O-])c2)cc1 (stereo unspecified) |
| 14 | x | x | x | 1.6 | -0.9 | i | x | C/C(=N\OCC(=O)OC(C)C(=O)Nc1ccc(C)c(S(=O)(=O)N2CCOCC2)c1)c1ccc2c(c1)OCO2 (stereo unspecified) |

Continued:
no.	canonical_smiles	UCH37 inh	E coli growth	Vif A3G	AF4-AF9 inh	HNF4A DNA FP	FGF22 binding	RanGTP-Impb inh
21	N#Cc1nc(-c2ccco2)oc1N1CCCC1	-97.8	0.724	31.3%	x	-2.8	x	-1.1
22	O=C(NCc1cccnc1)c1ccc(COc2cccc3ccccc23)o1	6.2	0.734	6.7%	x	5.8	x	-1.5
23	O=C1Nc2cc(Cl)ccc2Nc2cscc21	-0.1	0.665	x	-1.2	-1.1	i	3.8
24	Cc1nc(-c2ccc(C(=O)N3CCCC3)cc2)cs1	1.4	0.669	0.5%	-0.6	0.0	i	0.4
25	CCOc1ccccc1C(=O)NCC(=O)N(C)Cc1ccccc1C	4.6	0.6	-4.2%	2.2	3.2	i	-2.1
26	CCC1=C(OC(=O)N(CC)CC)N2C(=O)OC(=NCCc3c[nH]c4ccccc34)[C@]2(C)[C@H]2C1=CC[C@H]1C(=O)N(CC(=O)OC)C(=O)[C@H]12	1.6	x	9.1%	x	-0.6	x	-4.6
27	CCc1ccccc1NC(=O)CSc1nnc([C@H](CCSC)NC(=O)OC(C)(C)C)o1	1.6	0.784	-4.6%	x	-0.7	x	-3.5
28	O=C(c1cccc(Cl)c1)N1CCCC(C(=O)N2CCN(c3ccccc3)CC2)C1 (stereo unspecified)	-0.1	0.7	x	-4.2	-0.5	i	4.9
29	CCCc1ccc(-c2ccc(F)c(N)c2)nc1	2.3	0.652	5.6%	x	1.4	x	0.1
30	CCCCOC(=O)NC1(C)CCS(=O)(=O)C1 (stereo unspecified)	-0.8	0.674	-8.1%	x	-1.0	x	-0.4
31	COc1cc2c(cc1OC)-c1cc(Nc3ccc(F)cc3)nc(=O)n1CC2	-115.6	0.658	x	-0.5	1.1	i	6.8
32	Cc1cc(N2CCCC2=O)cc(C)c1CN1C(=O)c2ccccc2C1=O	-0.1	0.668	-6.7%&-19.3%	x	-1.0	x	3.0
33	Cc1cc(C)c(C)c(S(=O)(=O)N2CCN(C)CC2)c1C	3.1	0.693	-6.1%	0.0	3.0	i	x
34	CC1(C(=O)O)CCC(C(=O)Nc2ccc(S(N)(=O)=O)cc2)C1(C)C (stereo unspecified)	-0.2	0.681	9.8%	x	-3.0	x	1.4
35	CCCCn1nnnc1SCC(=O)Nc1ccc(N(C)C)cc1	2.9	0.71	u	x	2.2	x	1.9
36	Cc1cccc(N2CCN(C(=O)CC(NC(=O)c3ccccc3)c3ccccc3)CC2C)c1 (stereo unspecified)	1.2	0.67	x	x	2.9	x	-1.9
37	Cc1ccc(C(=O)NCCN2CCOCC2)cc1Cl	1.5	0.64	9.2%	x	-0.2	x	4.2
38	O=C(COc1ccccc1Cl)NCCc1ccc2c(c1)OCCO2	3.3	0.71	70.8%	-1.0	3.0	i	1.5
39	CCCCNC(=S)NC(C)(C)CO	0.8	0.716	28.5%	-0.6	2.3	i	0.5
40	Cc1c(NC(=O)CN2C(=O)NC(C)(c3ccc(Cl)cc3)C2=O)c(=O)n(-c2ccccc2)n1C (stereo unspecified)	5.9	0.641	-2.0%	-1.5	-5.0	i	3.6

Next section:
no.	canonical_smiles	UCH37 inh	E coli growth	Vif A3G	AF4-AF9 inh	HNF4A DNA FP	FGF22 binding	RanGTP-Impb inh
41	CCOc1cccc2cc(C(=O)Nc3ccccc3-c3ccccc3)c(=O)oc12	-0.3	0.638	-3.7%	x	-1.6	x	-2.3
42	O=C(CCCSc1ccccc1)Nc1nc(-c2ccco2)c(-c2ccco2)s1	-36.0	0.701	u	10.2	7.6	i	u
43	COc1cccc(NC(=O)CCN2C(=O)c3ccccc3S2(=O)=O)c1	2.8	0.714	-5.7%	3.4	-0.1	i	1.5
44	CCCC[C@@H]1CNC(=O)C(=O)N1CCCC	x	x	x	0.0	0.6	i	x
45	Cc1ccccc1NC(=O)c1ccc(F)c(S(=O)(=O)N2CCN(c3ccccn3)CC2)c1	3.9	0.744	1.7%	-15.0	-3.2	i	-1.9
46	COc1ccc(-c2cn3cc(C)ccc3n2)cc1Br	-12.9	0.666	x	11.1	9.1	i	0.5
47	CC(C)(C)OC(=O)N1CSC[C@H]1C(=O)NC[C@H](CC(=O)O)c1ccc(Cl)cc1	4.8	0.695	0.7%	-2.7	0.6	i	0.5
48	CCN(CC)S(=O)(=O)c1ccc(-c2nnc(SCC(=O)N3CCOCC3)o2)cc1	1.2	0.741	16.0%	-31.1	-0.1	i	11.6
49	COc1ccc2c(c1)c(CCN1C(=O)c3ccccc3C1=O)cn2C(=O)c1ccco1	-10.9	0.669	0.5%	-6.4	4.3	i	3.6
50	CCOc1ccc(OCCOCCOc2ccccc2Cl)cc1	3.1	0.688	-5.1%	x	-1.3	x	u
51	CC(=O)C1=C(O)C(=O)OC1c1ccc(Cl)cc1 (stereo unspecified)	6.9	0.62	23.7%	-1.0	-2.3	i	1.4
52	CC1(C(=O)NCCc2ccccc2)Cc2c(-c3cccc(C(N)=O)c3)ccnc2O1 (stereo unspecified)	x	x	x	-1.4	-3.4	i	x
53	Cc1ccc(C)c(Nc2nc3ccccc3n3cnnc23)c1	-119.7	0.69	x	-1.9	-1.2	i	4.6
54	O=C(OCC#CCSc1nnc(-c2cccc3ccccc23)o1)c1cccs1	-30.2	0.694	4.0%	x	-1.1	x	-4.0
55	O=C(NCCc1ccccc1)c1ccccc1Cl	3.5	0.664	-0.5%	-4.5	-1.6	i	-3.9
56	COc1ccc(C(=O)Nc2ccccc2C(=O)Nc2ccc(C(=O)O)cc2)cc1	0.4	0.645	x	-0.9	4.4	i	-4.2
57	COc1ccc2cc(C#N)c(SCC(=O)Nc3nonc3C)nc2c1	-10.1	0.654	x	-5.7	5.4	i	-0.7
58	COc1ccc(C(=S)N2CCOCC2)cc1OS(=O)(=O)c1ccc(Br)cc1	-0.1	0.707	9.4%	1.1	3.3	i	1.0
59	N#Cc1ccccc1Sc1ccccc1C(=O)OCC(=O)NC1CCCCC1	2.6	0.677	-12.3%	-1.0	-2.9	i	1.4
60	Cc1cc(NS(=O)(=O)c2ccc(NC(=O)C(C)Oc3ccc(C(C)C)cc3)cc2)no1 (stereo unspecified)	x	x	x	-3.4	1.1	i	0.1

The results go on:
no.	canonical_smiles	UCH37 inh	E coli growth	Vif A3G	AF4-AF9 inh	HNF4A DNA FP	FGF22 binding	RanGTP-Impb inh
61	Cc1c(C(=O)NC2CC(=O)N(c3ccc4c(c3)OCCO4)C2)cccc1[N+](=O)[O-] (stereo unspecified)	1.3	0.642	-1.7%	-8.3	1.0	i	-2.9
62	CC(C)N(Cc1nc(-c2ccccc2)no1)S(=O)(=O)c1ccccc1	2.4	0.701	6.9%	-8.3	0.9	i	2.4
63	CCCCc1ccc(-c2csc(/C(C#N)=C/c3ccc(C)o3)n2)cc1	5.2	0.685	-4.2%	x	42.4*	x	4.6
64	N/C(CN1CCCC1=O)=N\OC(=O)c1ccccc1Cl	2.1	0.705	8.7%	x	1.3	x	1.6
65	C[C@H]1CN([C@@H](C)CO)S(=O)(=O)c2ccc(Br)cc2O[C@H]1CN(C)C(=O)Cc1ccccn1	x	x	12.3%	0.9	-1.3	i	x
66	Cc1cccc(C)c1NC(=O)C1(NC(=O)Cn2cccc([N+](=O)[O-])c2=O)CCCCC1	5.2	0.594	x	-5.3	0.0	i	3.3

High-throughput results (PubChem)
